Bioassay records deposited in PubChem BioAssay by ICCB-Longwood Screening Facility, Harvard Medical School.
GIV Gai3 FP – inhibitors of GIV peptide binding to Galpha-i3, primary screen, biochemical, fluorescence polarization, FITC-GIV GBA peptide, rat Galphai3 | percent of control (FP), % (no concentration beside the values) | 90 min; stronger effect = lower value; scaled: aluminum fluoride 0%, vehicle 100% | hit rate 0.42% among 210,000 | AID 1224905, 2016;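 active = replicate mean at 85% of control or lower, very high polarization wells dropped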;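 also: wells of about 15 µL received 100 nL stock; the first replicate is given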
Target sequence (P08753 whole entry, looked up): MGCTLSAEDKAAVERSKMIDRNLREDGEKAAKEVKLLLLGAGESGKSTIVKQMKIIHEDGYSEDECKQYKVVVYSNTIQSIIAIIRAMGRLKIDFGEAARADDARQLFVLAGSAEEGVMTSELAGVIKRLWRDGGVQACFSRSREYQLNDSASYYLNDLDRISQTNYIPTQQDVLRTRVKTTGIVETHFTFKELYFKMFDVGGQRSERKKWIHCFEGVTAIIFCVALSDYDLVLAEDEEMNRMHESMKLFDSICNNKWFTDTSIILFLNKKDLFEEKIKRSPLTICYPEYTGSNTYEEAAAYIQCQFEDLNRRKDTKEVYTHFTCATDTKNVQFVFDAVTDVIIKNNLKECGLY
Sa growth inh – S. aureus growth inhibition at 42 and 30 °C, primary screen, LtaS inhibitor project, RN4220, two temperatures; AID 720641, 2013; relative growth, % (no concentration beside the values); OD600, 20 h, 42 °C; stronger effect = lower value; hit rate 0.53% among 170,000;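 active = growth at 42 °C up to 50% and 20 or more points under that at 30 °C, or under 10% at both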;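 also: 300 nL library stock went into each well; scaled to the means of positive and negative controls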
HCMV UL50-53 inh – inhibitors of HCMV UL50-UL53 interaction, biochemical, HTRF; inhibition, % (concentration not given with the values); HCMV UL50-UL53 nuclear egress complex (human cytomegalovirus); hit rate 0.15% among 190,000; normalized percent inhibition;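 active = both replicates at 50% or more, plus weaker picks with an unusually low signal ratio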;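 also: stock transfer was 100 nL into about 20 µL; 0% = negative control wells and 100% = wells with untagged competitor protein; inactives centre near -12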
Sa growth inh second temp – further read-out of Sa growth inh, marked with its call; relative growth, %; measured here: growth at 30 °C;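 optical density after 20 h as mean of two plates; 100% = untreated growth and lower means inhibition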
* = called active by the depositor; nt = not tested or not shown; & = joins results of further samples.

SMILES | GIV Gai3 FP | Sa growth inh | Sa growth inh second temp | HCMV UL50-53 inh
O=C(CCC(=O)N1CCSc2ccccc21)NCC1CCCO1 (stereo not given) | 100 | 87 | 86 | nt
Cc1ccc(C(=O)OCC(=O)NC2CCCCC2C)cc1 (stereo not given) | nt | 77 | 92 | -9
Cn1c(=O)c2c(SCC(=O)NCC3CCCO3)nc(-c3ccccc3)nc2n(C)c1=O (stereo not given) | 101 | 99 | 88 | -31
CCCN1CCC(NC(=S)Nc2ccc3c(c2)OCO3)CC1 | 102 | 90 | 96 | 5
c1ccc(-c2cc3c(NC4CC4)ncnc3s2)cc1 | nt | 66 | 43 | -54
CCN(CC)S(=O)C12CC3CC(CC(C3)C1)C2 (stereo not given) | 111 | 109 | 94 | -4
CSc1nc(N)c(C#N)c(C(C)C)c1C#N | 110 | 98 | 93 | -30
COc1ccc(OCCOC(=O)c2cccc(C#N)c2)cc1 | nt | 88 | 95 | 5
CCOC(=O)N1CCC(=NNc2ncc(C(F)(F)F)cc2Cl)CC1 | nt | 88 | 89 | -19
O=c1c2ccc(-c3nnc(SCCCOc4ccccc4)o3)cc2nc2n1CCCCC2 | nt | 88 | 88 | -8
CCCCn1cnc2sc3c(c2c1=N)CCCC3 | 109 | 98 | 89 | -14
Cc1ccc(Cc2cnc(NC(=O)C3Cc4ccc(C)cc4C(=O)O3)s2)cc1 (stereo not given) | 106 | 106 | 85 | -23
O=C(Nc1ccccc1)Nc1nnc(C(F)(F)F)s1 | 99 | 1.1* | 3.7* | -19
CCN(CC)CCCN(c1ccccc1)C1Cc2ccccc2C1 | 102 | nt | nt | -2
CC(=O)Nc1ccc(S(=O)(=O)NCCC(=O)Nc2ccc3c(c2)OC2(CCCC2)O3)cc1 | nt | 103 | 95 | -9
CN1CCN(c2nc(-c3cc4ccccc4o3)cs2)CC1 | nt | 103 | 91 | -63
O=C(NCCc1ccccc1)c1nn(-c2ccccc2Cl)nc1CO | 100 | 99 | 87 | -36
O=C(NC1CCCCNC1=O)c1cccnc1Oc1ccc(Cl)cc1 (stereo not given) | 102 | 85 | 94 | nt
CCOC(=O)C(CC)n1nc(C)n2c(cc3occc32)c1=O (stereo not given) | 104 | 100 | 89 | 8
Cc1cc(C)n(-c2nc3c(c(C(F)(F)F)n2)CC(C)CC3)n1 (stereo not given) | 99 | 81 | 88 | 0
CC1(C)CC(=O)C=C(NCc2ccc(S(N)(=O)=O)cc2)C1 | 101 | 95 | 102 | -7
C=CCNC(=O)c1cc2c(=O)n3cccc(C)c3nc2n(CC2CCCO2)c1=N (stereo not given) | 105 | 85 | 93 | nt
COc1c2c(nc3ccccc13)OC(C(C)(O)CO)C2 (stereo not given) | nt | 75 | 107 | 8&-30
CSc1ccccc1C(=O)NCCCN1CCOCC1 | 104 | 104 | 98 | -11
O=C(NC(Cc1ccccc1)C(=O)O)c1ccccc1 (stereo not given) | 102 | 90 | 89 | -20

Next section:
SMILES | GIV Gai3 FP | Sa growth inh | Sa growth inh second temp | HCMV UL50-53 inh
O=C1OCc2ccc(NC(=O)C3CCCCC3)cc21 | 99 | 93 | 83 | -6
CC(=O)Nc1ccc(I)cc1C(=O)O | 102 | 140 | 92 | -7
Cc1cc2nc(-c3cccc(NC(=O)CSc4ccc(Cl)cc4)c3)oc2cc1C | 106 | 118 | 86 | -7
CCOc1ccc(C2CC(=O)c3c([nH]c(C(=O)OCC4CCCCC4)c3C)C2)cc1 (stereo not given) | 106 | 90 | 86 | -9
Nc1ccc2nn(-c3ccc(Cl)cc3)nc2c1 | 99 | 104 | 98 | -18
COc1ccccc1NC(=O)c1cc(S(=O)(=O)N(C)C2CCCCC2)ccc1F | 102 | 112 | 82 | nt
CCOC(=O)c1sc(Sc2ccc(C(F)(F)F)cn2)c2c1CC(C)(C)CC2=O | 104 | 118 | 94 | 29
COCCCNC1CCN(Cc2ccccc2)CC1 | 101 | 106 | 83 | -7
Cc1ccc(C)c(CSc2cn(CCNC(=O)c3ccccc3F)c3ccccc23)c1 | 100 | 96 | 85 | -13
COc1ccccc1C(=O)Nc1ccc(S(=O)(=O)Nc2nc(C)cc(C)n2)cc1 | 96 | 87 | 86 | -3
CCOC(=O)C1CCC(CN(Cc2ccc(Cl)cc2)S(=O)(=O)c2ccc(Br)cc2)CC1 (stereo not given) | 103 | 122 | 84 | nt
CN(C)S(=O)(=O)c1ccc2[nH]c(=O)[nH]c2c1 | 106 | 93 | 93 | 7
CCc1nnc(SC(CC)C(=O)N2CCCCCC2)c2cc3sccc3n12 (stereo not given) | 103 | 86 | 83 | nt
CCc1nc2ccc(C(=O)N3CCN(c4ccccc4)CC3)cc2nc1CC | 111 | 119 | 99 | nt
Cc1cc2c(=O)n(Cc3ccco3)c(SCC(N)=O)nc2s1 | 105 | 105 | 97 | 6
O=C(Cn1c2ccc(F)cc2c2nc3n(c(=O)c21)CCS3)N1CCCC1 | 108 | 98 | 100 | -8
COc1ccc(N2CCN(C(CNC(=O)c3c(F)cccc3F)c3ccc4c(c3)OCO4)CC2)cc1 (stereo not given) | 99 | 105 | 81 | nt
CCOC(=O)c1cccc(NC(=O)c2c(C)[nH]c(C(=O)OCC)c2CC)c1 | 105 | 93 | 101 | 10
COc1cc2c(cc1OC)C(COc1cc(C)cc(C)c1)N(C(=O)C(C)(C)C)CC2 (stereo not given) | 100 | 90 | 88 | nt
CC(C)(C)C(=O)c1sc2c(c1N)c(=O)[nH]c(=O)n2CC1CCCO1 (stereo not given) | nt | 86 | 95 | -7
O=C(O)C1=NN(c2ccccc2)C(=O)CC1 | 95 | 93 | 107 | -21
Clc1ccc(Nc2nc3ccccc3s2)cc1 | nt | 80 | 99 | 18
COc1ccc(OC)c2c(N3CCOCC3)cc(C(F)(F)F)nc12 | 98 | 96 | 83 | nt
Cc1ccc(-c2nc3sc4c(c3c(=O)o2)CCCCC4)cc1 | 106 | nt | nt | 0
O=C(NCCc1nc(-c2ccccc2)no1)c1cc(-c2ccccc2)on1 | 103 | nt | nt | -22

Next section.
SMILES | GIV Gai3 FP | Sa growth inh | Sa growth inh second temp | HCMV UL50-53 inh
CCOC(=O)Cc1ccc(NC(=O)N2CCOc3ccc(C)cc32)cc1 | 100 | 118 | 88 | -7
CCOc1ccc(N(CC)S(=O)(=O)N2CCCC(C(=O)NCc3ccccc3Cl)C2)cc1 (stereo not given) | 106 | 97 | 75 | nt
COc1ccc(-c2cc(C(F)(F)F)n3ncc(C(=O)NCc4cn(C)nc4C)c3n2)cc1OC | 119 | nt | nt | -42
CSc1ccc(Cl)c(C(=O)OCC(N)=O)c1 | nt | 92 | 97 | 12
Cc1cc(Nc2cccc(Cl)c2)nc2ccc(NC(=O)c3cncc(Br)c3)cc12 | 102 | 110 | 92 | nt
O=C(CCc1nc2cccnc2n1Cc1ccccc1)NCc1ccccc1 | 104 | 103 | 79 | -5
CN(C)CCCOC(=O)c1ccc2c(c1)OCCO2 | 106 | nt | nt | -10
CC(C)CC(=O)NC(=S)Nc1cccc2nsnc12 | 106 | 99 | 83 | nt
CCCCN(CCCC)CCCNC(=O)c1ccc2nc(N3CCCCC3)sc2c1 | 101 | 96 | 88 | -28
OCCCn1c(-c2ccccc2)csc1=Nc1ccccc1 | nt | 72 | 41 | 2
Cn1c(=O)c(C(=O)O)nn(-c2ccccc2)c1=O | 103 | 101 | 90 | -23
CCNS(=O)(=O)c1cc(-c2nn(C)c(=O)c3ccccc23)ccc1C | 103 | 117 | 76 | nt
c1ccc2sc(C3CCCCN3)nc2c1 (stereo not given) | nt | 86 | 91 | -17
CSc1sc(C(=O)O)c2c1S(=O)(=O)N(C)c1ccsc1-2 | 106 | 102 | 89 | 1
COC(=O)C1=C(C)OC(=O)C1(NC(=O)C1CCCCC1)C(F)(F)F (stereo not given) | 101 | 106 | 101 | 0
Cc1cccn2c(=O)c(/C=C(\C#N)C(=O)N3CCCCC3)c(N3CCOCC3)nc12 | 105 | 96 | 94 | -24
CC(C(=O)NC1CCCC1)n1sc2ccccc2c1=O (stereo not given) | 99 | 90 | 90 | nt
Cc1cc(=O)[nH]c(Cc2c(Cl)cccc2Cl)n1 | 97 | 77 | 111 | 3
CCOc1ccc(-c2cc3c(=O)n(CC(=O)NCc4ccc(Cl)cc4)ccn3n2)cc1 | 106 | 84 | 88 | nt
CCOC(=O)c1ccc(NC(=O)c2cc(-c3ccc(OC)cc3)nc3ccccc23)cc1 | 101 | nt | nt | 4
Cc1ccc(-c2cc(-c3c(C)n[nH]c(=O)c3N)[nH]n2)cc1 | 103 | 95 | 78 | -95
Cc1ccc2oc(=O)c(-c3nc(-c4ccccc4)no3)cc2c1 | 102 | 96 | 91 | -26
Cn1c(=O)c(-c2noc(CCC(=O)NC3CC3)n2)nn(-c2ccccc2)c1=O | 109 | nt | nt | -97
CC1=Nc2ccc(Br)cc2C(c2ccccc2)N1CC(=O)NN (stereo not given) | 105 | 102 | 74 | nt
COc1ccc(NC(=O)c2ccc3nnc(SCC(=O)Nc4ccc5c(c4)OCCO5)n3c2)cc1 | 103 | nt | nt | -51

Continued.
SMILES | GIV Gai3 FP | Sa growth inh | Sa growth inh second temp | HCMV UL50-53 inh
CC(C)c1ccc(-c2nc(C(N)=O)c3c(n2)n(-c2ccc4c(c2)OCO4)c(=O)n3C)cc1 | 107&104 | 111 | 92 | -6
Cc1ccc(S(=O)(=O)c2c(Nc3cc(F)ccc3F)sc(C(=O)c3ccc(F)cc3)c2N)cc1 | 101 | 93 | 96 | -19
CCc1ccccc1NC(=O)CSc1nncn2c1cc1sccc12 | 99 | 99 | 88 | nt
CC(=O)Nc1nonc1NC1=CCCCC1 | nt | 92 | 90 | -13
Cc1ccc(NC(=O)NN2CCOCC2)cc1 | 101 | 100 | 80 | -12
CCOC(=O)c1sc2ccccc2c1S(=O)(=O)N1CCN(c2cccc(C)c2)C(C)C1 (stereo not given) | 94 | 90 | 87 | nt
O=C(c1cc2ccccc2[nH]1)N1CCCN(c2ccc(=O)n(-c3ccccc3)n2)CC1 | 105 | nt | nt | -39
Cc1ccc(Nc2cc(-n3nc(C)cc3C)nc(-c3ccccc3)n2)cc1 | nt | 102 | 73 | -8
CCc1ccc(NC(=O)CSc2nc3ccccc3c(=O)n2CCc2ccccc2)cc1 | 98 | 105 | 92 | nt
CC(C)N(C(=O)CSc1nc2ccccc2n1CC(=O)N1C(C)CCCC1C)C(C)C (stereo not given) | 106 | 101 | 108 | 1
CCN1C(=O)C2NN=C(C(=O)c3nc(Cl)ccc3Cl)C2C1=O (stereo not given) | nt | 90 | 87 | -23
CCc1nn(CC(=O)NCCc2ccc(Cl)cc2)c(=O)c2cc3c(OC)cccc3n12 | 94 | 87 | 102 | 4
CCCCCn1c(=O)[nH]c2cc(C(=O)Nc3cc(C)cc(C)c3)ccc2c1=O | 106 | 100 | 86 | -11
O=C(Nc1ccccc1F)c1cccc(NC(=O)N2CCCCc3ccccc32)c1 | 105 | nt | nt | -19
O=C(CC1CCCC1)NCc1cn2ccsc2n1 | 106 | 99 | 90 | -24
CN(C(=O)c1ccccc1)c1ccc(OCC(=O)O)cc1 | nt | 109 | 96 | -5
O=C(O)CCc1ccc(-c2ccccc2)[nH]1 | 111 | 90 | 80 | -12
Cc1c(C(=O)Nc2ccc(F)cc2F)oc2c1-c1nn(Cc3c(F)cccc3Cl)cc1CC2 | 100 | 104 | 87 | -3
COC(=O)C(N)Cc1ccc(Cl)cc1 (stereo not given) | 106 | nt | nt | -6
Fc1ccc(-c2noc(CSc3ccc(-c4ccccc4F)nn3)n2)cc1Br | 108 | nt | nt | 0
COc1cccc(CNC(=O)C2CCN(c3nc4cccnc4s3)CC2)c1 | 96 | nt | nt | -6
CS(=O)(=O)N1CCN(c2ccc(NC(=O)c3ccc4c(c3)OCO4)cc2)CC1 | 105 | 110 | 84 | -12
Cc1nn2c(=O)cc(COC(=O)c3cccc(NC(=O)c4ccc(C(C)(C)C)cc4)c3)nc2s1 | 104 | 65 | 80 | nt
CCNC(=S)Nc1cccc(NC(=O)c2ccccc2O)c1 | 100 | 98 | 89 | -12
